Compound activity from PubChem.
MT1-MMP promoter: inhibitors of MT1-MMP promoter transcription, cell-based, luciferase reporter, luminescence (AID 618) | MT1-MMP promoter luciferase reporter cells, luminescence | calls from a first round at 10 µM; hits with a dose series show EC50 in µM | 87,000 tested, 0.62% active;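 active means over half of the reporter light lost at 10 µM or EC50 under 50 µM; inactive means the rest and hits that failed the dose series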;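 further: actives suppress MT1-MMP promoter-driven transcription so potencies describe inhibitors; HT1080 fibrosarcoma cells; overnight exposure; toxic or luciferase-blocking compounds were not removed from the actives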
WNV protease inh: WNV NS2B-NS3 proteinase inhibition; P06935; z-score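 (tested at a level between 10 and 100 µM)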; AID 577; WNV NS2B-NS3 protease, fluorogenic substrate Ex360/Em465; active compounds read low; 65,000 tested, 0.18% active;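 active means z-score at -3 or under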;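 further: score is relative to mean and spread of the compound wells of a plate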
Target sequence (P06935 1371-1501 limits assumed): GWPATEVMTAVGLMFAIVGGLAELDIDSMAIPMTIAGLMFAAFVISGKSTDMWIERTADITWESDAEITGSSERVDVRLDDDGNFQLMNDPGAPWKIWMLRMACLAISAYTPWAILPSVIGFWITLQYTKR
Target sequence (P06935 1502-1679 limits assumed): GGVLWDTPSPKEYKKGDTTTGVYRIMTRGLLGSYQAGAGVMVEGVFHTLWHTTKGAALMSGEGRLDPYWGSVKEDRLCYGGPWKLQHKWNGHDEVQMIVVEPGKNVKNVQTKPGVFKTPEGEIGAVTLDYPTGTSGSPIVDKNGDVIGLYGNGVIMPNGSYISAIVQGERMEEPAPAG
Hsc70 ATP site: small molecules displacing fluorescent ligand from Hsc70 – biochemical, fluorescence polarization, primary screen (AID 568) | Hsc70 fluorescence polarization, probe displacement; higher % means a stronger effect; strong numbers were not always called active | displacement, % at 20 µM, or IC50 in µM where a hit was titrated | 83,000 tested, under 10 active;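 active means displacement above 50% without optical interference and an IC50 on retest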;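 further: ATPase domain with a fluorescein-tagged ATP probe; 0% = vehicle and 100% = excess ADP; read after one hour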
* = called active by the depositor; i = inactive; . = no result given; + = active, no number.

Values in the order – MT1-MMP promoter	WNV protease inh	Hsc70 ATP site
CC1(C)N=C(C(=O)c2ccccc2)N(O)C1(C)O (stereo not given)
 : i	-0.69	-2.1%
CN1CCN(C(=O)C2(NC(=O)Nc3ccccc3Cl)CCCCC2)CC1
 : i	.	5.2%
O=c1cc(C(F)(F)F)nc(-c2ccccc2)[nH]1
 : i	-0.84	0.4%
CCOC(=O)c1ccc(NC(=O)CCc2ccc(CC)o2)cc1
 : i	0.53	-1.7%
COC(=O)c1ccc(S(=O)(=O)N2CCCCC2)o1
 : i	.	-0.7%
CC(C)c1ccc(NC(=O)CSc2nnc(-c3ccccn3)n2C)cc1
 : i	-0.75	7.1%
CC(N=C1NS(=O)(=O)c2ccccc21)c1ccccc1 (stereo not given)
 : i	1.6	-1.7%
CN1CCN(CCCN2c3ccccc3Sc3ccc(C(F)(F)F)cc32)CC1
 : i	-0.35	-0.9%
CCC1CC2CC(NC(C)=O)C1C2 (stereo not given)
 : i	.	1.6%
COc1ccc(CCNC(=O)C2CCN(S(=O)(=O)c3cccc4nsnc34)CC2)cc1OC
 : i	0.5	1.2%
CC1(C)C2CCC(C2)C1(C)NC(=O)CN1CCOCC1 (stereo not given)
 : i	-1.1	3.8%
COCCNC(=O)c1c[nH]c2ccc(OC)cc2c1=O
 : i	-0.57	-0.9%
CC(C)Nc1nnc(SCC(=O)c2c(N)n(Cc3ccccc3)c(=O)n(C)c2=O)s1
 : i	.	-0.5%
O=C(COc1ccccc1Cl)Nc1nc(-c2cccs2)cs1
 : i	.	-0.2%
CCOC(=O)c1cnc(SCC(=O)Nc2sc(C)c(C)c2C#N)nc1N
 : i	0.17	-5.2%
COc1ccccc1-c1cc(C(=O)NCc2cccs2)no1
 : i	0.42	-0.9%
COc1ccccc1S(=O)(=O)Cc1ccc(C(=O)NCCN2CCCC2)o1
 : i	-0.3	2.0%
Cc1nn(C(=O)c2cccs2)c(N)c1-c1ccccc1
 : i	-0.9	2.9%
CC(C)NC(=O)c1ccc(N2CCOCC2)nc1
 : i	.	-0.6%
Cc1ccc(O)c(C2=NOC(O)(C(F)(F)C(F)F)C2)c1 (stereo not given)
 : i	0.0037	-3.3%
OCCOc1nnnn1-c1ccccc1
 : i	.	3.9%
COc1ccccc1CC(NC(C)=O)C(=O)NC1CCN(c2nnnn2-c2ccccc2)CC1 (stereo not given)
 : i	0.18	-2.9%
Fc1ccc(C2=Nn3c(Cc4ccccc4)nnc3SC2)cc1
 : i	0.53	2.6%
Cc1ccc2cc(CN(Cc3nnnn3C3CCCC3)C3CCCCC3)c(=O)[nH]c2c1C
 : i	-0.38	0.2%
COC(=O)CC1C(=O)NC2CCCCC2N1C(=O)c1ccccc1 (stereo not given)
 : i	-0.38	3.6%
CN(C)C(=O)c1ccc(Oc2ccc(C(=O)N(C)C)cc2)cc1
 : i	-0.62	-0.1%
COc1ccc(-n2c(Cc3cccn3C)nnc2SCC(=O)Nc2ccc(C)c(Cl)c2)cc1
 : i	-0.25	3.9%
Nc1cccc(-c2nc3ccc(N)cc3s2)c1
 : +	5.7	0.9%
CCNc1ccc(S(=O)(=O)C(F)(F)F)cc1NC(=O)C12CCC(CC1)C2
 : i	-0.26	1.1%
O=C(CCCOc1ccc(Cl)cc1Cl)NCC1CCCO1 (stereo not given)
 : i	.	-2.2%
Cc1ccccc1OC(C)c1nc(-c2ccccc2)no1 (stereo not given)
 : i	-0.97	-16%
Cc1ccc2cccc(Oc3cnccn3)c2n1
 : i	0.29	-3.3%
CCOc1cc(N2CCOCC2)c(OCC)cc1NC(=O)CCS(=O)(=O)c1ccc(Cl)cc1
 : i	-0.54	7.2%
C=CCOC(=O)N1CCN(c2cccc(C(F)(F)F)c2)CC1
 : i	1.1	-3.5%
O=C(O)COCC(=O)Nc1ccc2c(c1)CCC2
 : i	0.92	-3.6%
CC(C)NC(=O)/C(=N\O)c1ccccc1
 : i	.	-7.3%
CCCCN1CCc2c([nH]c3ccccc23)C1=O
 : i	-0.87	-6.8%
COCCn1c(SCC(=O)Nc2cccc(S(N)(=O)=O)c2)nc2ccccc21
 : i	.	-1.7%
Cn1c(-c2ccc(F)cc2)cnc1NCc1ccccc1
 : i	1.1	2.4%
C=C(C)C1CC=C(CN2CCC(C(=O)OCC)CC2)CC1 (stereo not given)
 : i	-0.15	-7.8%
COc1ccccc1-c1nnc(SC/C(O)=C(\C#N)c2nc3ccccc3[nH]2)n1C1CCCCC1
 : i	2.6	-0.6%
CN(C)C(=O)CSc1cccc2cccnc12
 : i	-1.4	3.1%
Cc1nn(-c2ccccc2)c(Cl)c1/C=C1\SC(=S)NC1=O
 : i	.	-5.3%
Cc1cccc(S(=O)(=O)C(C#N)c2nc3ccccc3nc2N2CCOCC2)c1 (stereo not given)
 : i	1.5	3.8%
CCc1nnc(NC(=O)CSc2nnc(CNc3ccc(Cl)cc3)o2)s1
 : i	-0.09	-7.9%
COc1cc(C2c3c(oc4ccccc4c3=O)C(=O)N2CCN2CCOCC2)cc(OC)c1OC (stereo not given)
 : i	2.1	14%
Cc1ccnc(NS(=O)(=O)c2ccc(NC(=O)C3CCCCC3)cc2)n1
 : i	0.47	-8.1%
Cc1c(Cl)cnc(NC(=O)COC(=O)C(NC(=O)c2ccco2)C(C)C)c1Cl (stereo not given)
 : i	0.43	-0.8%
CN(C)C(=O)c1cnc(Sc2ncc(C(F)(F)F)cc2Cl)n1C
 : i	.	8.0%
O=C(CN1CCOCC1)Nc1cccc(C(=O)Nc2cccc(C(F)(F)F)c2)c1
 : i	-0.23	-0.7%

The results go on.
Values in the order – MT1-MMP promoter	WNV protease inh	Hsc70 ATP site
COc1ccc2oc(=O)c(C(=O)N3c4ccccc4CC3C)cc2c1 (stereo not given)
 : i	.	-0.3%
Cc1cc(SCNC(=O)c2ccccc2)ncn1
 : i	2.1	2.2%
CC(C)c1ccc(-c2noc(C3CCCN(C(=O)c4ccc(F)cc4F)C3)n2)cc1 (stereo not given)
 : i	-0.99	-7.7%
CCN1C(=O)c2cccc3c(NC(=O)c4ccccc4)ccc1c23
 : i	.	-9.6%
Oc1[nH]c2ccccc2c1C=NCC1CCCO1 (stereo not given)
 : i	-0.78	1.3%
O=S(=O)(c1ccccc1)c1ccccc1/C=N\O
 : i	0.77	1.8%
Cc1cccc(NC(=O)c2cc3n(n2)C(C(F)(F)F)CC(C2CC2)N3)c1C (stereo not given)
 : i	.	-0.4%
CCOc1ccc(N(CC(=O)Nc2ccc(OC)cc2)S(=O)(=O)c2c(C)noc2C)cc1
 : i	-0.14	-7.7%
O=C(CSc1nnc(CNC(=O)c2cccs2)o1)NCCc1ccccc1
 : i	-0.84	-3.3%
CCOc1cc(Br)c(C(=O)O)cc1OC
 : i	.	-3.7%
O=C(CSc1nc2ccccc2[nH]1)N1CCN(S(=O)(=O)c2ccc(Cl)cc2)CC1
 : i	.	-5.7%
Cc1ccc(NCc2nnc(SCC(=O)NCc3ccco3)n2CC2CCCO2)cc1Cl (stereo not given)
 : i	-0.08	2.7%
COc1ccc(OCc2nn3c(-c4ccco4)nnc3s2)cc1
 : i	-2.2	4.4%
Cc1ccc2c(c1)nnn2C1CCN(CC(=O)Nc2ccccc2N2CCOCC2)CC1
 : i	-0.86	-4.0%
Cc1ccc2cc(CN(Cc3ccccc3)Cc3nnnn3C3CCCC3)c(=O)[nH]c2c1
 : i	-0.2	-3.3%
CCn1c(=S)[nH]c2cc(C(=O)OC)ccc2c1=O
 : i	.	3.6%
COc1ccc(NS(=O)(=O)c2ccc3c(c2)Cc2ccccc2-3)cn1
 : i	0.54	6.6%
O=C(NCc1ccco1)c1ccc2ccccc2c1
 : i	0.61	1.8%
CCn1cc(C(=O)NC2CCC(C)CC2)c(=O)c2cc(S(=O)(=O)N3CCCCC3)ccc21 (stereo not given)
 : i	0.17	7.7%
CN(c1ccc(C(=O)N2CCCCC2)cc1)S(=O)(=O)c1ccccc1
 : i	-1.1	-2.1%
CCc1nnc(NC2=NCCC2)s1
 : i	2.2	5.6%
COc1cccc(NC(=O)COc2ccc(N3CC(C(=O)NCC(C)C)CC3=O)cc2)c1 (stereo not given)
 : i	-1.1	-0.5%
CCC1(CC)C(=O)N(C)C(=O)NC1=NCc1ccccc1
 : i	-0.01	5.2%
Cc1cccc(NC(=O)CN2CCCN(S(=O)(=O)c3ccc(Br)s3)CC2)c1
 : i	-1.4	-0.3%
O=C(c1ccc(Cl)c(S(=O)(=O)N2CCCCCC2)c1)N1CCN(CCO)CC1
 : i	.	1.5%
COc1ccc(-c2cc(C(=O)N3CCN(c4ccccn4)CC3)c3ccccc3n2)cc1
 : i	1.3	3.7%
Cc1cc(N)n2ncc(-c3ccc(F)cc3)c2n1
 : i	.	0.4%
O=C(NCc1ccco1)C1(c2ccccc2)CCCC1
 : i	0.3	1.0%
c1cncc(-c2noc(C34CC5CC(CC(C5)C3)C4)n2)c1
 : i	0.64	-3.2%
Cc1ccccc1C(=O)c1cccn1CC(=O)O
 : i	0.67	2.1%
CCOC(=O)c1[nH]c2ccc(OC)cc2c1NC(=O)CN1CCN(c2ccccn2)CC1
 : i	-0.37	-7.8%
CCCCC(=O)Nc1ccc(NC(=O)c2cccs2)cn1
 : i	.	1.7%
COc1cc(/C=c2\sc3n(c2=O)C(c2ccccc2)C(c2ccccc2)=NN=3)ccc1O (stereo not given)
 : i	.	-22%
COc1ccc(-c2noc(CSc3nc(-c4ccccc4)cc(=O)[nH]3)n2)cc1OC
 : i	1.4	-0.8%
CCCSc1nc2c(c(=O)[nH]c(=O)n2C)n1CCc1ccccc1
 : i	-0.26	-5.8%
COc1ccc(C(=O)NCc2oc(-c3ccccc3)cc2C(=O)O)cc1
 : i	-0.35	1.4%
COc1ccc(CCNC(=O)C2CCCN(S(=O)(=O)c3cnc[nH]3)C2)cc1OC (stereo not given)
 : i	-0.44	3.0%
CC1CCc2cc(F)ccc2N1C(=O)CCC(=O)O (stereo not given)
 : i	-2.4	1.8%
COc1ccc(OCCCC(=O)NCC(C)C)cc1
 : i	.	-3.3%
COc1ccc(OC)c(-n2c(-c3ccc(S(C)(=O)=O)cc3)cc(C=O)c2C)c1
 : i	.	-0.4%
CCSc1nc(O)cc(=O)n1-c1ccc(OC)cc1
 : i	-0.58	5.3%
CCC(Sc1nc2c(c(=O)[nH]1)CCC2)C(=O)Nc1cccc(OC)c1 (stereo not given)
 : i	-0.63	0.8%
COc1ccc(CCn2c(NCc3ccco3)nc3c2c(=O)[nH]c(=O)n3C)cc1
 : i	-1.1	2.2%
CCN=C1SC(CC(=O)Nc2ccc(C(F)(F)F)cc2)C(=O)N1CC (stereo not given)
 : i	0.9	-8.2%
O=C(CCn1c(=O)[nH]c2ccccc2c1=O)N1CCN(c2ccc(Cl)cc2)CC1
 : i	-0.07	4.0%
CC(C)(C)CC(=O)Nc1cccc2c1CCCC2
 : i	.	-3.3%
CCCOc1ccc(CN(CCO)CCO)cc1C(=O)OC
 : i	0.83	-7.5%
COC(=O)NCc1ccc(CNC(=O)OC)cc1
 : i	-1.4	-3.9%
CCn1c(CSc2ncccn2)nnc1SCC(=O)N1c2ccccc2CC1C (stereo not given)
 : i	-0.52	2.1%
COCCCN1C(=O)C(=O)/C(=C(/O)c2ccc(C)cc2)C1c1ccccc1 (stereo not given)
 : i	0.47	-1.7%

Other structures
Values in the order – MT1-MMP promoter	WNV protease inh	Hsc70 ATP site
COC(=O)C1CCN(C(=O)Cc2ccc(Br)cc2)CC1
 : i	-1.7	-2.4%
O=C(CCC(=O)c1ccc(F)cc1)OC1CCOC1=O (stereo not given)
 : i	-0.31	3.4%
Cc1cc(C)n(C(=O)c2ccc(NC(=O)C3COc4ccccc4O3)cc2)n1 (stereo not given)
 : i	0.58	1.0%
O=C(Oc1ccccc1)c1cc2ccccc2o1
 : i	0.41	-0.2%
O=C(Nc1ccc(Cl)cc1)C1CCCN(S(=O)(=O)c2cnc[nH]2)C1 (stereo not given)
 : i	0.87	7.9%
COc1ccc(NC(=O)CN2C(=O)C(C)Oc3ccccc32)c(OC)c1 (stereo not given)
 : i	0.81	28%
CCOC(=O)N1CCN(CCC(=O)Nc2ccc(C)c(Br)c2)CC1
 : i	0.5	-4.7%
CCn1c(C(=O)N2CCCC(C(=O)O)C2)cc2sccc21 (stereo not given)
 : i	-0.3	9.2%
Cc1ccc(O)c(/C=N/NC(=O)C2=NNC(c3ccccc3)(c3ccccc3)C2)c1
 : 19µM*	.	0.3%
CSC1=C(C#N)C2(CCCC2)C(C#N)=C(N)N1
 : i	-1.2	-6.2%
Cc1cccc(NC(=O)CS(=O)(=O)c2c[nH]c3ccccc23)c1C
 : i	-0.55	-2.2%
